Vif A3G: HIV-1 Vif–A3G interaction blockers – biochemical, TR-FRET, GST-Vif 1-94, biotin-A3G peptide, dose response retest, primary screen (AID 1117319); inhibition, %, or IC50 in µM where a hit was titrated; 260,000 compounds, 0.57% hits; TR-FRET GST-Vif / biotin-A3G peptide binding; higher % means a stronger effect; test concentration not given here; strong numbers were not always called active;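 active means above the screen mean plus three standard deviations and confirmed in dose response; inconclusive means results disagree or hit not tested in dose response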;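 further: Vif residues 1-94 fused to GST binding biotinylated APOBEC3G peptide 110-148; 0% = full assay without inhibitor and 100% = GST in place of GST-Vif; retest series ran down from 100 µM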
B2AR ag: activates human beta-2 adrenergic receptor causing internalization; Am2.2-beta2AR cells, FAP receptor internalization, flow cytometry; reference of the scale not given here; response, % (no concentration beside the values); 340,000 compounds, 0.43% hits; AID 504454;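 active means response above a set limit, near 3 SD of response in nonfluorescent compounds, cut at about 42% in these data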;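 further: stock transfer was 100 nL into about 11 µL; a reference agonist was the positive control; negative values mostly stem from fluorescent compounds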
Target sequence (P07550 whole entry, looked up): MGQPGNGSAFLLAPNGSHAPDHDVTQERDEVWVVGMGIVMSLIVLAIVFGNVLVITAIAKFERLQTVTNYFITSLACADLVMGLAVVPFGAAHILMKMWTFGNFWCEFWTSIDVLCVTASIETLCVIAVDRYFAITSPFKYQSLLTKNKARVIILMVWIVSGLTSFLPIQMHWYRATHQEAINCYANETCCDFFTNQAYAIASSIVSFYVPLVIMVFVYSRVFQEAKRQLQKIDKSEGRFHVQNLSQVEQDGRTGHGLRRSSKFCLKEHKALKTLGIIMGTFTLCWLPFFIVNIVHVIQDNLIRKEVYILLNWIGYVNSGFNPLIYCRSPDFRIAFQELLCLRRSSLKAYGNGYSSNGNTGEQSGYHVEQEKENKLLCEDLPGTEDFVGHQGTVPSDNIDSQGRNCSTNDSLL
LANA-H2B inh: blocks KSHV LANA binding to histone H2A/H2B; Q9QR71; cell-free LANA-H2A/H2B peptide, fluorescence polarization; inhibition, % (test concentration not listed); 320,000 compounds, 0.6% hits; in the data active means inhibition mostly above about 10%, no sharp cut-off; inactive means mostly below about 6.7%;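 further: stock transfer was 7.5 nL into about 10 µL; 0% = median of vehicle wells and 100% = median of positive control wells; one replicate is shown; the record names a cut of 25% in any replicate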
Calb FLC: C. albicans growth modulation with fluconazole; growth inhibition, % (no concentration beside the values); 300,000 compounds, 0.57% hits; C. albicans CaCi-2 (fluconazole-resistant clinical isolate) + fluconazole, Alamar Blue growth, 48 h; AID 1979;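 active means most replicates above 75%; inconclusive means exactly half above 75%; inactive means most below 75%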;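 further: all wells also contain fluconazole at 8 µg/ml as a sub-toxic cotreatment; 0% = median of DMSO wells and 100% = median of geldanamycin control wells; wells of about 8 µL received 7.5 nL stock; the first replicate is given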
HNF4A DNA FP: change in binding of human HNF4 alpha to DNA | HNF4a-FITC DNA binding, fluorescence polarization, 1 h | P41235 | 360,000 compounds, 0.3% hits | activity change, % at 10 µM; in the data active means activity change above about 30%, passing the limit was not always enough;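 further: controls were the assay level and a saturating level of protein; the project sought stronger binding though the title names inhibitors; some compounds called inactive have numbers as strong as hits; positive values seem to mean higher polarization but the record does not say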
Target sequence (P41235 whole entry, looked up): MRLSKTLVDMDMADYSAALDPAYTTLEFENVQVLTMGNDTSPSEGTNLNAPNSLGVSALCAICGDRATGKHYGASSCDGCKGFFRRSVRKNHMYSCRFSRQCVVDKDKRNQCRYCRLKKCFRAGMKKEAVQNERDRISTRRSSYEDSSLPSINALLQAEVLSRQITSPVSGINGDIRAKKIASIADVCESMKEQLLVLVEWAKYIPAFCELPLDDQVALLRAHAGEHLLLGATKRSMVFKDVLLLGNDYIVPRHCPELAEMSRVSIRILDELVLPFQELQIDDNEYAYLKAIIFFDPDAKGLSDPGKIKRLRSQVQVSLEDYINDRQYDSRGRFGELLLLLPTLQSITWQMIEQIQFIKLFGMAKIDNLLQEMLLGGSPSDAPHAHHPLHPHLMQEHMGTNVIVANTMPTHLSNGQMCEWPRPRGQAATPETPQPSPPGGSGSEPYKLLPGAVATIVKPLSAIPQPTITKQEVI
ALR inh: human ALR oxidase inhibition via reduced H2O2; inhibition, % (test concentration not listed); purified ALR, DTT oxidation, H2O2 HRP-luminol luminescence; P55789; 290,000 compounds, 3.8% hits;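 active means mean and each replicate at 75% or more; inconclusive means only one of the two met; inactive means neither met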;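 further: stock transfer was 7.5 nL into about 7.5 µL; 0% = neutral wells and 100% = wells with inactivated enzyme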
Target sequence (P55789 whole entry, looked up): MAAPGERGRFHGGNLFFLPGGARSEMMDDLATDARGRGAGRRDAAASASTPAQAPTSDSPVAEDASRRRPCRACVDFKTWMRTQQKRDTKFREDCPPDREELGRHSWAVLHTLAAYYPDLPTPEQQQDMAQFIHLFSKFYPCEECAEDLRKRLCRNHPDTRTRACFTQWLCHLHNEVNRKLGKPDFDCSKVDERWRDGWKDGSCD
RanGTP-Imp inh: inhibitors of RanGTP-importin-beta interaction, primary screen, biochemical, FRET, CFP-Ran, YFP-importin-beta, homogeneous; 300,000 compounds, 1.1% hits; inhibition, % (no concentration beside the values); cell-free CFP-Ran/YFP-importin-beta FRET ratio;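 active means most replicates above 15%; inconclusive means exactly half above 15%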;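 further: 0% = DMSO wells and 100% = Ran loaded with GDP instead of GTP; wells of about 40 µL received 100 nL stock; the first replicate is given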
Starred values were filed as active, the others as inactive; ? = inconclusive; . = no result given. No enrichment for hits. About 6.3% of those tested had a hit in this group.

| Molecule | Vif A3G | B2AR ag | LANA-H2B inh | Calb FLC | HNF4A DNA FP | ALR inh | RanGTP-Imp inh |
| --- | --- | --- | --- | --- | --- | --- | --- |
| CC(C)C[C@H](NC(=O)N1CCCCCC1)C(=O)O | 2% | 3 | 3.2 | 0 | 2.4 | -5 | -1.3 |
| CCN1CCOC(CC(=O)Nc2cccc([N+](=O)[O-])c2)C1=O (centres undefined) | 9% | -5 | 12 | 0 | 1.3 | 51 | 4.3 |
| O=C1C(Cc2cccc([N+](=O)[O-])c2)S/C(=N/N=C/c2ccco2)N1c1ccccc1 (centres undefined) | 28% | -3 | -4.9 | 6 | 1.4 | 41 | 0.5 |
| COc1ccc(S(=O)(=O)N2CCOCC2)cc1NC(=O)CSc1ccc(F)cc1 | . | -4 | -2.6 | . | -1.1 | . | . |
| CC(C(=O)Nc1ccc2c(c1)OCO2)N(c1ccc(Cl)cc1)S(C)(=O)=O (centres undefined) | 24% | 12 | 0.6 | ? | 0.0 | -1 | -4.3 |
| CC(=O)CSc1nc2c(c(=O)[nH]c(=O)n2C)n1CCCc1ccccc1 | . | 7 | 0.9 | -2 | 0.4 | 29 | 0.3 |
| COc1ccc(-c2nc(Cn3c(SCc4cccc(F)c4)nc4ccncc43)c(C)o2)cc1OC | -25% | 26 | -3.7 | 2 | 2.5 | -10 | -2.9 |
| CC1CN(C(=O)C2CCCCC2)C(C)CN1C(=O)C1CCCCC1 (centres undefined) | 1% | 5 | -5.2 | 33 | 2.0 | -5 | -3.0 |
| CC(C)On1c(SC(C)C)nc2ccccc2c1=O | -6% | -5 | 0.8 | 23 | 3.7 | -6 | -1.8 |
| CC(=O)Nc1ccc(S(=O)(=O)Nc2nc(C)cc(-n3nc(C)cc3C)n2)cc1 | 8% | -11 | 1.6 | -4 | -1.5 | 1 | 1.7 |
| Cc1cccc(C(=O)Nc2cccc(Br)c2)c1[N+](=O)[O-] | -10% | 2 | -4.5 | 28 | -1.4 | -13 | -1.9 |
| O=c1[nH]oc2cc(Cl)ccc12 | -1% | -2 | 7.5 | -2 | 0.2 | -2 | -0.1 |
| CCOP(=O)(c1c(F)c(F)c(F)c(F)c1F)C(O)c1ccccc1 (centres undefined) | -2% | 2 | -4.0 | -3 | -1.5 | 46 | -1.1 |
| COc1ccc(OC)c(NC(=O)CSc2nc(-c3ccccc3)cc(=O)[nH]2)c1 | -3% | -4 | -0.4 | 55 | 1.8 | -8 | 7.2 |
| Cc1sc(NC(=O)c2cc(-c3ccc(Cl)cc3)nc3ccccc23)c(C(N)=O)c1C | 13% | 6 | 2.8 | -15 | -1.1 | -1 | -4.6 |
| COc1ccc(CCNC(=O)COC(=O)Cc2cccc(F)c2)cc1 | -2% | -5 | . | . | -0.4 | . | . |
| NC(=O)c1oc2ccccc2c1NC(=O)c1ccccc1 | 0% | -4 | 0.2 | -4 | 0.9 | 4 | -2.3 |
| N#Cc1cccc(NC(=O)CCNS(=O)(=O)c2ccc3[nH]c(=O)oc3c2)c1 | 18% | 2 | -9.6 | -10 | -0.2 | -6 | -9.4 |
| CN1CCc2c(sc(NC(=O)C3CCN(S(=O)(=O)c4cccs4)CC3)c2C(N)=O)C1 | 1% | -1 | -2.4 | 0 | -2.4 | -1 | 132* |
| Cc1ccc(NC(=S)N(CCCN2CCOCC2)Cc2ccccn2)cc1Cl | . | -1 | -6.1 | -4 | -0.6 | 17 | -2.4 |
| C=CCN1C(=O)/C(=C/c2ccsc2)SC1=S | 21% | 44* | -5.5 | 4 | 3.5 | -3 | 1.7 |
| CC(=O)N1c2ccc(S(=O)(=O)NCC3CCC(C(=O)NC4CCCCC4)CC3)cc2CC1C (centres undefined) | . | -18 | 1.7 | -7 | -0.7 | -2 | -0.2 |
| COc1cc(N)c(Cl)cc1C(=O)OCC(=O)N1CCCCCC1 | 6% | 4 | 0.3 | . | 1.4 | 0 | . |
| CC#CCN1c2ccccc2[C@]23C[C@@H](C(=O)OC)N(C(C)=O)C2=NC(C(=O)OC)=C(C(=O)OC)[C@H]13 | . | 1 | -0.8 | 10 | 0.3 | 1 | 4.8 |
| CCC(=O)Nc1cccc(NC(=O)c2ccccc2Br)c1 | . | -1 | -1.6 | -5 | 1.4 | -3 | ? |
| COc1ccc(CCNC(=O)CSc2nc3[nH]ncc3c(=O)n2-c2ccc(Br)cc2)cc1OC | -1% | 4 | -0.9 | -14 | 0.6 | -14 | -0.7 |
| Cc1c(C#N)c(NC(=O)CCl)n(Cc2cccs2)c1C | 27% | 13 | 4.8 | -6 | 2.6 | 74 | 0.1 |
| CSc1cccc(NC(=O)CNS(=O)(=O)c2ccccc2)c1 | . | -2 | 0.8 | 8 | -2.2 | -17 | 1.5 |
| COc1ccc(C(=O)N[C@H](C(=O)NCc2ccco2)C(C)C)cc1 | . | 3 | -5.2 | -12 | 3.1 | . | -0.4 |
| C=CCNC(=S)NNC(=O)c1ccc(Br)o1 | 4% | 18 | 2.5 | 7 | 1.6 | 9 | 1.6 |
| O=C(Nc1cccc(-n2cnnn2)c1)c1ccccc1Br | . | -8 | 4.1 | 22 | -0.4 | -9 | ? |
| COC(=O)c1cc(C#N)c(N2CCOCC2)nc1C | . | -2 | -3.8 | -8 | 3.2 | -6 | ? |
| Cc1c(-c2nnc(-c3ccc(C(F)(F)F)cc3)o2)cnn1-c1ccccc1 | -7% | 17 | -0.6 | 2 | 0.6 | -2 | -3.3 |
| O=[N+]([O-])c1ccccc1C=NNC(=S)NN=Cc1ccccc1[N+](=O)[O-] | 14% | 9 | . | . | -3.1 | . | . |
| COc1ccccc1CCNC(=O)C1CCC(=O)N(Cc2cccc(F)c2)C1 (centres undefined) | . | 3 | . | -23 | 3.2 | . | -3.8 |
| CSc1ccc(CN2CCSCC2)cc1 | -12% | -7 | -7.1 | 0 | -0.3 | 10 | 0.7 |
| CNC(=O)c1sccc1S(=O)(=O)Cc1c(Cl)cccc1Cl | -4% | -1 | 0.4 | 7 | -1.9 | 1 | 0.3 |
| COc1ccccc1CNC(=O)CCNC(=O)c1ccco1 | 6% | -3 | . | . | 1.3 | . | . |
| CCN(c1ccccc1)S(=O)(=O)c1ccc(Cl)c(C(=O)NC2CCN(Cc3ccccc3)CC2)c1 | 8% | -2 | . | . | 1.7 | . | . |
| N/C(=N\OC(=O)Cc1ccc(Cl)cc1)c1ccccn1 | -9% | 0 | -3.6 | 2 | 2.0 | -3 | 2.5 |
| COc1cc(C(F)(F)F)ccc1C(=O)NCCc1ccco1 | -1% | -1 | 0.4 | 5 | 3.0 | 6 | -1.9 |
| Cc1nn(-c2ccccc2)c2c1C(O)n1c(nc3ccccc31)S2 (centres undefined) | ? | -2 | 2.2 | 12 | 0.2 | -2 | 1.7 |
| CC(C)(C)C(=O)NC(=S)N1CCc2ccccc21 | 14% | -4 | -1.1 | 3 | -0.4 | -11 | -0.8 |
| Cc1ccc(C(=O)C(C)OC(=O)C2=COCCO2)cc1C (centres undefined) | ? | 0 | 5.8 | -1 | 0.1 | 15 | -2.0 |
| Cc1ccc(NC(=O)COc2cccc3ccc(C)nc23)c(Br)c1 | 13% | 0 | . | -11 | 1.1 | . | -0.4 |
| CCC(C)(C)NC(=O)c1ccccc1Oc1ccccc1 | . | 1 | 0.7 | 41 | -3.2 | -3 | -1.3 |
| CC1(C)CC(=O)C2=C(C1)OC1=C(C(=O)CC(C)(C)C1)C2c1cc([N+](=O)[O-])cc([N+](=O)[O-])c1O | -5% | -4 | -0.2 | 91* | 3.1 | 49 | -0.6 |
| O=C(Nc1cccc(NC(=O)c2ccco2)n1)c1ccco1 | . | -5 | 2.7 | 5 | -1.9 | -5 | 0.1 |
| COc1ccccc1CNC(=O)c1ccc(S(=O)(=O)N(C)C)cc1 | -1% | 1 | 1.4 | -9 | 0.1 | -5 | 0.8 |
| COc1ccc(CC2(CO)CCN(Cc3cnn(C)c3C)CC2)cc1 | 11% | 3 | 5.2 | 0 | -1.3 | 3 | -2.6 |
| CCN(CC)Cc1nc2sc(C)c(C)c2c(=O)[nH]1 | 0% | 3 | -2.1 | 12 | 2.7 | -4 | 4.9 |
| COc1ccccc1N1CCN(/N=C/c2cccc(Cl)c2)CC1 | 2% | -4 | -1.4 | -9 | 3.7 | 3 | 9.2 |
| CCCc1cc(=O)oc2c3c(cc(OCC(=O)NCCCn4ccnc4)c12)OC(C)(C)CC3 | . | -13 | -3.6 | 4 | -0.9 | -47 | 5.4 |
| CCn1c(CNc2ccc(C)cc2C)nnc1SCC(=O)N1CCCc2ccccc21 | 6% | 11 | -1.4 | -2 | -2.7 | . | 2.2 |
| FC(F)(F)c1ccnc(NCc2ccco2)n1 | -5% | 1 | 2.8 | -14 | 3.4 | -5 | -0.5 |
| COCCOC(=O)C1=C(C)NC(=O)CC1c1cc2c(cc1Br)OCO2 (centres undefined) | 0% | -4 | -2.9 | -1 | -1.6 | . | 6.7 |
| O=C(O)CC1(CC(=O)O)Nc2ccccc2SC1=O | -2% | 4 | . | . | -4.3 | . | . |
| CC(C)c1ccc(NC(=O)NCc2cccnc2)cc1 | . | 12 | 1.6 | 6 | 9.6 | 6 | -0.1 |
| CC(=O)N1CC(=O)N(OCc2ccccc2)C1c1ccc(Cl)cc1Cl (centres undefined) | 33% | 6 | -2.5 | 2 | 4.3 | -9 | ? |
| O=C(NCC(c1cccs1)N1CCOCC1)c1ccccc1NS(=O)(=O)c1ccc(Cl)cc1 (centres undefined) | . | -6 | 3.4 | 14 | 2.7 | -2 | -2.4 |

An excerpt from above, showing only Vif A3G.
mol,Vif A3G
CC(C)(C)C(=O)NC(=S)N1CCc2ccccc21,14%
Cc1ccc(C(=O)C(C)OC(=O)C2=COCCO2)cc1C (centres undefined),?

Next structures follow.
| Molecule | Vif A3G | B2AR ag | LANA-H2B inh | Calb FLC | HNF4A DNA FP | ALR inh | RanGTP-Imp inh |
| --- | --- | --- | --- | --- | --- | --- | --- |
| COc1cc(NC(=O)CCCN2C(=O)NC(C)(C)C2=O)cc(OC)c1 | . | -3 | -6.2 | . | -0.9 | -22 | . |
| CCOC(=O)c1c(NC(=O)Cc2cccs2)sc(C(=O)NC2CCCC2)c1C | -1% | -8 | -1.0 | 0 | -1.4 | -3 | 8.1 |
| CC(C)N(C(=O)Cn1cnc2c(cnn2-c2ccccc2Cl)c1=O)C(C)C | 1% | 5 | 2.8 | 3 | 4.4 | -8 | -1.1 |
| O=C(/C=C/c1ccc([N+](=O)[O-])cc1)OCC(=O)c1ccc[nH]1 | . | 15 | 2.4 | . | -4.3 | -5 | . |
| O=c1[nH]ccc2c(O)cccc12 | . | -6 | 0.3 | 4 | 0.6 | 98* | -0.2 |
| CC(C)CC(c1nnnn1Cc1ccco1)N1CCN(c2cccc(Cl)c2)CC1 (centres undefined) | 11% | 11 | -5.2 | -17 | -1.9 | -4 | -2.7 |
| CCn1nc(NC(=O)c2ccccn2)c2cc3cc(C)ccc3nc21 | -7% | 2 | -1.5 | 1 | 4.9 | -2 | 89* |
| S=C1NC2(CCS1)Oc1ccccc1C1CC(c3ccccc3)=NN12 (centres undefined) | -4% | . | . | -6 | . | . | 6.1 |
| O=[N+]([O-])c1ccc2[nH]ncc2c1 | -7% | 5 | 0.7 | -12 | -2.8 | . | -3.5 |
| C[N+]1(CCCCSc2ccc(O)cc2)CCCCC1 | 1% | 3 | -1.5 | -2 | 0.5 | 99* | -3.4 |
| CC(NC(=O)CN(c1cccc(C(F)(F)F)c1)S(C)(=O)=O)c1ccccc1 (centres undefined) | . | 4 | -4.6 | -1 | 2.2 | . | -3.2 |
| CCN(CC(=O)NCc1ccc(F)cc1)C(=O)c1oc2ccccc2c1C | . | 7 | -8.5 | -3 | 2.5 | -1 | -1.4 |
| Cc1nc(NC(=O)COC(=O)CCc2ccccc2)c(Cl)cc1Cl | . | 5 | -2.5 | . | 0.3 | -1 | . |

Assay outcomes: PubChem BioAssay, several laboratories
